VDR inh: vitamin D3 receptor (human) inhibition | VDR-SRC2-3 peptide fluorescence polarization, 2 h | hit rate 0.93% among 400,000 | Potency, µM, without a hit: max response, negative = inhibition, actives largely listed as inhibitors; active = well fitted inhibition curve with a large enough effect; inconclusive = small, poorly fitted or top-dose-only effect, or another doubt; inactive = no such curve, though single readings can be large or run the other way; note: series mostly up to about 120 µM
Target sequence (P11473 whole entry, looked up): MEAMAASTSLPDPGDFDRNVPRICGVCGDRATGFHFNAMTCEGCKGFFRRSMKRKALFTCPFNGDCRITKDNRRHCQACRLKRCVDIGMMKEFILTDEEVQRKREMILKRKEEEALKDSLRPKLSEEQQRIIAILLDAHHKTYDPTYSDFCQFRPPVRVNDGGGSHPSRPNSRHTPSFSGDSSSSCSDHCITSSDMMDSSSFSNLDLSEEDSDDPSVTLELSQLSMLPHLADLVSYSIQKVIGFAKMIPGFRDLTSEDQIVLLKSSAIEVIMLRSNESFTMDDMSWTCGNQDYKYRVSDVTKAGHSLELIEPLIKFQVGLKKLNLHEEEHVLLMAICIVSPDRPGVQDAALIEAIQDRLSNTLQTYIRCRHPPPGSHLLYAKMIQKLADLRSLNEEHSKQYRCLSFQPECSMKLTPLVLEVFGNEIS
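After 23 nl compound addition and a short centrifugation, plates sat for 2 hours at ambient temperature; polarization of fluorescence then indicated loss of VDR binding to peptide SRC2-3.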
Starred values were filed as active, the others as inactive; ? = inconclusive; & = joins results of further samples. % is set by controls: 0 for no effect and ±100 for the full control effect; potency is the fitted concentration of half-maximal effect. A portion of the library; rates above refer to the full screens.

SMILES	VDR inh
Cc1nnc(N2C(=O)C(O)=C(C(=O)c3ccco3)C2c2ccc(F)cc2)s1 (centres undefined)	-19.8%
CC1(C)CCCN(C(=O)c2ccc3c(c2NCCO)C(=O)c2ccccc2C3=O)C1	-16.2%
COc1cccc(C(=O)NNS(=O)(=O)c2ccc(F)cc2)c1	-13.7%
CCCOc1ccc(CSc2ncn[nH]2)cc1	?
CN1CCN(c2ccc(CNS(=O)(=O)c3cccc(F)c3)cc2)CC1	-20.7%
COc1ccc(-c2nsc(NC(=O)c3oc4ccc(Cl)cc4c3C)n2)cc1	-13.7%
CC(=O)Nc1cccc(OCCCOc2cccc([N+](=O)[O-])c2)c1	-17.2%
CC(C)n1nc(C(=O)OCC(=O)N(C)C2CCS(=O)(=O)C2)c2ccccc2c1=O (centres undefined)	-5.7%
COc1ccccc1/C=C/C(=O)OCC(=O)NCc1ccco1	-11.6%
c1ccc(Oc2ccccn2)cc1	11.9%
O=C(CSc1nc(-c2cccc(F)c2)[nH]c1-c1ccccc1)Nc1ccc2c(c1)OCO2	-8.0%
CC1Oc2ccccc2N(CC(=O)N2CCCCCC2)C1=O (centres undefined)	-11.0%

SMILES	VDR inh
COC(CN(C)S(=O)(=O)c1cc2c3c(c1)CCC(=O)N3CCC2)OC	5.2%
CC1C=CCC2C(=O)N(c3cc(Cl)ccc3O)C(=O)C12 (centres undefined)	-7.5%
CCOc1ccc(NC(=O)CSc2nnc(Cn3cnc([N+](=O)[O-])n3)n2C)cc1	-24.1%
COc1ccccc1/C=N/OC(=O)c1ccc(C)cc1	-2.8%
Cc1cc(-c2ccc(C)c(S(=O)(=O)NCC3CCN(Cc4cccc(F)c4)CC3)c2)on1	2.7%
CCC(C)(C)NC(=O)c1cccc(NC(=O)C(C)C)c1	-6.1%
CCn1nnnc1SCC(=O)Nc1nc(-c2cccs2)cs1	-2.4%
O=C(CN1CCN(c2ccccc2)CC1)c1c[nH]c2ccccc12	-5.0%
CC(C)(C)C(=O)OCc1cn(-c2ccc(Cl)cc2)nn1	-2.8%
COc1ccc(-c2nc3ccccc3n2Cc2ccc(Cl)cc2)cc1	-3.1%
CC/C(=N\n1nnnc1Nc1ccccc1)c1ccccc1	-21.6%
Cn1nnc(-c2ccc(OCc3ccccc3F)cc2)n1	0.2%

SMILES	VDR inh
COc1cccc(-c2cccc(NC(=O)C3CCN(CC4CCOC4)CC3)c2)c1 (centres undefined)	-17.7%
Cc1ccc(SCC(=O)c2c(C)nc3ccccn23)cc1	23.8%
COc1ccccc1C(=O)NNC(=S)Nc1ccccc1	-4.2%
Nc1c2nc(-c3ccccc3)[nH]c(=O)c2nc(=O)n1-c1ccccc1	-7.6%
N/C(=N\OC(=O)c1cccc2ccccc12)c1cccnc1	-9.9%
CCOC(=O)N1CCN(C(=O)c2ccc([N+](=O)[O-])cc2Cl)CC1	?
CC(CCc1ccccc1)NC(=O)CN1CCN(c2ccc(O)cc2)CC1 (centres undefined)	3.0%
Cc1ccc(C(=O)CSc2nc(-c3ccccc3)nc3c2CCCC3)cc1C	-13.1%
O=C(Cc1c(F)cccc1Cl)Nc1ccc(S(=O)(=O)N2CCOCC2)cc1	-7.2%
Cc1cc(NC(=O)NC2(C(F)(F)F)Oc3ccc(Cl)cc3O2)no1 (centres undefined)	5.4%
O=C(Nc1cnc2ccccn2c1=O)c1ccc(Cl)cc1	16.3%
NC(Cc1c[nH]c2ccccc12)C(=O)NCc1ccco1 (centres undefined)	-7.9%

A run of entries of the results above, for reference:
SMILES	VDR inh
Cc1ccc(SCC(=O)c2c(C)nc3ccccn23)cc1	23.8%
COc1ccccc1C(=O)NNC(=S)Nc1ccccc1	-4.2%
Nc1c2nc(-c3ccccc3)[nH]c(=O)c2nc(=O)n1-c1ccccc1	-7.6%
N/C(=N\OC(=O)c1cccc2ccccc12)c1cccnc1	-9.9%
CCOC(=O)N1CCN(C(=O)c2ccc([N+](=O)[O-])cc2Cl)CC1	?
CC(CCc1ccccc1)NC(=O)CN1CCN(c2ccc(O)cc2)CC1 (centres undefined)	3.0%

Later entries.
SMILES	VDR inh
CCN(CC)C(=O)c1nc[nH]c1C(=O)N1CCN(c2ccccc2)CC1	-1.5%
Cc1ccc(C)c(NC(=S)N2CCCCC2CO)c1 (centres undefined)	-4.7%
CC(C)c1ccc(C2=CC(c3cccc(Cl)c3)n3ncnc3N2)cc1 (centres undefined)	18.2%
N#Cc1cccc(Cn2nnc(-c3ccccc3)n2)c1	-14.9%
COc1ccc(C(=O)Nc2nnc(CCc3ccccc3)s2)c(OC)c1	-11.9%
COc1ccc(C(C)(C)C)cc1NC(=O)CCCn1c(=O)oc2ccccc21	-26.9%
CCc1nc2ccccc2n2c(-c3ccccc3)c3c(=O)n(C)c(=O)n(C)c3c12	-8.4%
COc1ccc(CN2CCN(C(=O)c3ccco3)CC2)cc1	-14.5%
Cc1cc(=O)c(C(=O)O)cn1Nc1ccc(F)cc1	3.5%
Cc1onc(-c2c(Cl)cccc2Cl)c1C(=O)Nn1cnnc1	0.6%
CO/N=C/C(C#N)=C/c1cc(C(=O)c2ccc(F)cc2)cn1C	10.4%
CN=C(C)C1=C(O)C(C(=O)OC)C(C)(C)CC1=O (centres undefined)	-8.8%

SMILES	VDR inh
O=C(NCc1cccs1)c1cc(S(=O)(=O)N2CCCCC2)ccc1Cl	-2.7%
Cc1ccc(C(=O)Nc2cccnc2Oc2ccc(Cl)cc2)cc1	-1.1%
CCCC(=NCC(=O)O)C1=C(O)C(C(=O)OC)C(C)(C)CC1=O (centres undefined)	-3.2%
O=C(NCc1ccccc1)C1CCN(S(=O)(=O)c2ccc(N3CCCC3=O)cc2)CC1	-15.9%
COc1ccc(NC(=O)c2cc3c(=O)n(C)c4cc(Cl)ccc4c3s2)cc1Cl	19.2%
Cc1ccc(/C=N/NC(=O)c2cc(-c3ccncc3)nc3ccccc23)o1	19.5%
Cc1cc(C)cc(OCC(=O)Nc2nc(-c3ccc(F)cc3)ns2)c1	8.4%
COc1ccc(C(=O)OCC(=O)NC2CCCC2)c(OC)c1OC	3.4%
Nc1nc2c(nc(Br)n2C2OC3COP(=O)(O)O[C@@H]3C2O)c(=O)[nH]1 (some centres undefined)	-12.7%
COCc1ccc2oc(C(=O)O)cc2c1	-14.6%
CC(C)(C)C1CCc2c(sc(NC(=O)c3cccc(Cl)c3)c2C(N)=O)C1 (centres undefined)	?
CC(=O)Oc1cccc(N2C(=O)c3cccc4c([N+](=O)[O-])ccc(c34)C2=O)c1	-12.9%

SMILES	VDR inh
CCCCn1c(-c2ccc(OC(F)F)cc2)nc2c1c(=O)[nH]c(=O)n2CC(C)C	-0.8%
COCc1cc(C)nc2sc3c(c12)NC(c1ccccc1C(=O)O)N(c1cccc(C(F)(F)F)c1)C3=O (centres undefined)	17.2%
COc1cc(S(=O)(=O)Nc2ccccc2C(=O)N2CCCC2)ccc1NC(C)=O	6.8%
COC(=O)c1ccc(OC(=O)c2ccccn2)cc1	-14.0%
COCCN(C(=O)Cc1cccs1)C(C(=O)NCc1ccc(OC)cc1)c1ccc(C)cc1 (centres undefined)	-4.5%
CC(C)(C)c1ccc(OCCC(=O)Nc2cccc(S(=O)(=O)N3CCOCC3)c2)cc1	10.9%
CCOc1ccc2nc(N3CCCC(C(=O)NCCc4ccc(C)cc4)C3)sc2c1 (centres undefined)	-0.9%
CCN1C[C@@H]2[C@@H]3C(=O)N(C)C(=O)[C@@H]3[C@](CC)(C1=O)N2C(=O)c1ccc(C)cc1	8.8%
Cc1ccc(NS(=O)(=O)c2cccc3nsnc23)cc1[N+](=O)[O-]	6.5%
C/C(=N\NC(=O)c1ccc(OC2OCCOC2Oc2ccc(C(=O)N/N=C(\C)c3ccncc3)cc2)cc1)c1ccncc1 (centres undefined)	3.8%
COCC(=O)NC1CCN(CC(=O)Nc2ccccc2[N+](=O)[O-])CC1	-6.5%
O=C(NCCS(=O)(=O)N1CCN(c2ccccc2F)CC1)c1ccc(F)c(F)c1	4.6%

SMILES	VDR inh
Cc1ccccc1OCCC(=O)Nc1ccc(S(=O)(=O)N(C)C2CCN(C)CC2)cc1	-7.5%
COc1ccc(C(=O)c2c3ccccc3[n+]([O-])n2Cc2ccc(C(N)=O)cc2)cc1	-9.4%
CS(=O)(=O)c1ccc(Sc2nc3ccccc3[nH]2)c([N+](=O)[O-])c1	9.9%
CCOC(=O)c1ccccc1NC(=O)N1CC(C)Oc2ccc(C)cc21 (centres undefined)	9.8%
CCC(=O)N(Cc1cc2cc(OC)ccc2[nH]c1=O)c1ccc(C)cc1	-6.7%
COC(=O)c1c(C)[nH]c(C(=O)NCCc2ccc(S(N)(=O)=O)cc2)c1C	-4.8%
COCCN1C=C(C(=O)OC)C(c2ccc3c(c2)OCO3)C(C(=O)OC)=C1	-0.9%
CC(=O)Nc1sc(C)c(C)c1C(=O)OC1CCOC1=O (centres undefined)	7.3%
COc1ccc(N2CCN(C(=O)CCc3ccc(S(=O)(=O)NC(C)(C)C)cc3)CC2)cc1	-8.7%
Cc1ccc(S(=O)(=O)N2[C@@H](c3ccccc3F)C(C(=O)O)=CC[C@H]2c2cccc(Cl)c2)cc1	2.5%
O=C(COc1ncnc2sccc12)N1CCN(S(=O)(=O)c2ccc(Cl)cc2)CC1	-4.9%
O=C(N/N=C/c1cnc2ccccc2n1)c1cccc(F)c1	11.9%

SMILES	VDR inh
COc1ccc(C(=O)C2CCCN(C(=O)c3ccc(CSC)o3)C2)cc1F (centres undefined)	?
COc1cccc(-c2nc(CS(=O)(=O)CC(=O)NCCCc3ccccc3)c(C)o2)c1	-7.5%&-12.1%
Cc1oc(-c2ccccc2F)nc1CS(=O)(=O)CC(=O)N1CCN(c2ccc(Cl)cc2)CC1	17.6%
O=c1c2ccccc2nnn1CSc1nnc(-c2ccco2)o1	6.7%
C[C@H](Cc1ccccc1)Nc1ncnc2c1ncn2[C@@H]1O[C@H](CO)[C@@H](O)[C@H]1O	1.4%&-6.7%&8.5%
C/C(=N\NC(=O)COc1ccccc1-c1ccccc1)c1cccnc1	-9.5%
O=[N+]([O-])c1ccc(-c2csc(N3CCc4ccccc4C3)n2)cc1	-14.8%
Cc1cc(C)cc(N(CC(=O)NCCc2ccc(Cl)cc2)S(=O)(=O)c2c(C)noc2C)c1	-25.2%
COc1ccc(C(=O)Nc2ccc(-c3cc4ccccc4oc3=O)c(C)c2)cc1OC	-5.8%
O=C(Cc1ccccc1)N/N=C/c1ccc([N+](=O)[O-])s1	-14.0%
NC(=O)c1ccsc1NC(=O)COC(=O)c1ccc(Cl)c(N)c1	8.4%
COCCN(C(=O)COC(=O)C1CC1C)c1c(N)n(Cc2ccccc2)c(=O)[nH]c1=O (centres undefined)	-11.4%

SMILES	VDR inh
CCc1nnc(SCc2ccc(OC)cc2)c2cc3sc(C)cc3n12	13.4%
CCOc1ncccc1C(=O)NCCN1C(=O)S/C(=C/c2cccs2)C1=O	12.1%
O=C(NCc1ccccc1Cl)c1cc2ccccc2oc1=O	-3.4%
O=C1CN(S(=O)(=O)c2ccc(F)cc2)CCN1	-3.6%
COc1cc(SC)ccc1C(=O)Nc1ccc(S(=O)(=O)Nc2nccc(C)n2)cc1	9.4%
CC(C)(C)c1cc(CCC(=O)NNC(=O)c2ccncc2)cc(C(C)(C)C)c1O	1.3%
COc1ccc(C(CNC(=O)CN(C)S(=O)(=O)c2ccc(C)cc2)N2CCCC2)cc1 (centres undefined)	15.0%
Cc1cccc(N2CCN(C(=O)C3CCC(=O)N(Cc4ccccc4F)C3)CC2)c1C (centres undefined)	3.7%
CCCc1nc(SCC(=O)Nc2nccs2)c2ccccc2n1	0.2%
CS(=O)(=O)N1CCC[C@@]2(CCN(Cc3ccccc3)C2)C1	-12.5%
CCN1CCN(c2nc(-c3ccc(F)cc3)cc(=O)[nH]2)CC1	-6.8%
CC1=C(C(=O)NCc2ccccc2)C(c2cc(Br)cc(Br)c2OC(C)C)NC(=O)N1 (centres undefined)	0.0%

SMILES	VDR inh
Cc1cc(C)cc(NC(=O)CSCc2cnn(-c3ccccc3)c2-n2cccc2)c1	0.8%
COc1ccc(C2=NN(C(=O)C(O)c3ccccc3)C(O)(C(F)(F)F)C2)cc1 (centres undefined)	0.8%
COc1ccc(-c2cc3ccc(OC)cc3cn2)cc1	0.3%
CC(=O)N1CCc2cc(S(=O)(=O)C(C)CC(=O)Nc3ccc(OC(F)(F)F)cc3)ccc21 (centres undefined)	?
O=[N+]([O-])c1ccc2c(c1)-c1ccccc1C2=NO	-2.0%
C/C=C/c1ccc(OCCOCCNCc2ccccc2)c(OC)c1	-1.3%
COc1ccccc1N1CCN(C2CCCC(C)C2)CC1 (centres undefined)	8.3%
CCc1cc2c(CN3CCN(CCO)CC3)cc(=O)oc2cc1O	10.6%
CC(=O)N=c1n(C)c2ccccc2n1CCOc1ccccc1	-4.2%
Cc1ccc(SC/C(O)=C(\C#N)c2nc3ccccc3n2C)cc1	-0.6%
Cc1cc(N)ccc1-n1c(C)ccc1C	?
O=c1cnnc(Nc2cccc(F)c2)[nH]1	-5.2%

SMILES	VDR inh
COc1ccc(C2C(C(=O)Nc3cccnc3)=C(C)Nc3nc(-c4ccccc4)nn32)cc1OC (centres undefined)	-18.7%
CC(C)CN1C(=O)C(=O)N(CC(=O)N2CCC(Cc3ccccc3)CC2)C1=O	-10.5%
CCc1ccc(-n2nc(C)c3c(C(=O)N4CCN(c5ccccc5)CC4)cc(C)nc32)cc1	19.2%
Cc1ccc2cc(CN(CC3CCCO3)C(=S)NCc3ccco3)c(=O)[nH]c2c1C (centres undefined)	-13.3%
